# High-throughput results from PubChem BioAssay.
# D2 potentiator: positive allosteric modulators of human D2 dopamine receptor; P14416; DiscoveRx D2 beta-arrestin cells, luminescence, 90 min; 100% = 57 uM dopamine signal; potentiation, % (no concentration beside the values); hit rate 0.23% among 360,000; AID 624464; active = potentiation of 50% or more; inconclusive = 30% to 50%; inactive = 30% or less;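 also: compound concentration not given in the record; tested on top of an EC20 dose of dopamine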
# Target sequence (P14416 whole entry, looked up): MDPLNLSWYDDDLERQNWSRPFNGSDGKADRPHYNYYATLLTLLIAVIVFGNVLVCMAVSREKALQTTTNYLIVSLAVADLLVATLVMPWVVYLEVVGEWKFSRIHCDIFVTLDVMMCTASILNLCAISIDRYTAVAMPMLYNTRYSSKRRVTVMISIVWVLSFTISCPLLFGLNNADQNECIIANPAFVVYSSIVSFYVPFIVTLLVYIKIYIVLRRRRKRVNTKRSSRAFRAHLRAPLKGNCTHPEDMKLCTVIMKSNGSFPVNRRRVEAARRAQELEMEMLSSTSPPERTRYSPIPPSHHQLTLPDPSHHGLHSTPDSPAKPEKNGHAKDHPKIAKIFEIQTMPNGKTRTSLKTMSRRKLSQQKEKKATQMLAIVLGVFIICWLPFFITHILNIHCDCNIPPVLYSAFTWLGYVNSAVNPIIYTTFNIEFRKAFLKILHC
#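 D2 cells co-treated with compound plus 50 nM dopamine (EC20) for 90 min at 37 deg C to detect potentiation. Beta-arrestin recruitment was read as enzyme-fragment luminescence after 1 h at ambient temperature. Full response was set by 57 uM dopamine.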
# Six1-Eya2 inh: inhibitors of human Six1/Eya2 interaction; AID 651725; Q15475+O00167; AlphaScreen GST-Six1/His-Eya2 binding, biochemical; stronger effect = lower value; control for the full effect not named in the record; hit rate 0.56% among 360,000; activity change, % (test concentration not listed); in the data active = activity change below about -65%; inconclusive = about -30% to -65%; inactive = above about -30%; also: % is scaled to controls: 0 for no effect and ±100 for the full control effect; compound concentration not given in the record
#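 GST-Six1 + His-Eya2 (5X stock: 250/500 nM); Tris pH 8.0, 300 mM NaCl, 0.05% BSA, 0.02% Tween 20; GSH donor/Ni acceptor beads; 1 h 37 °C dark; AlphaScreen readout.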
# TRPML1 blocker: blocks the human TRPML1 channel; Q9GZU1; TRPML1-inducible cells, Ca2+ dye fluorescence, FDSS; stronger effect = lower value; inhibition of EC80 agonist-evoked calcium signal; activity change, negative = inhibition, % (no concentration beside the values); hit rate 0.02% among 390,000; AID 624415; in the data active means activity change below about -50%; inconclusive means about -30% to -50%; inactive means above about -30%;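 also: stimulus is agonist 54-4 at its EC80 concentration; % is scaled to controls: 0 for no effect and ±100 for the full control effect; compound concentration not given in the record; the text of the record puts the active cut at -80%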
# Target sequence (Q9GZU1 whole entry, looked up): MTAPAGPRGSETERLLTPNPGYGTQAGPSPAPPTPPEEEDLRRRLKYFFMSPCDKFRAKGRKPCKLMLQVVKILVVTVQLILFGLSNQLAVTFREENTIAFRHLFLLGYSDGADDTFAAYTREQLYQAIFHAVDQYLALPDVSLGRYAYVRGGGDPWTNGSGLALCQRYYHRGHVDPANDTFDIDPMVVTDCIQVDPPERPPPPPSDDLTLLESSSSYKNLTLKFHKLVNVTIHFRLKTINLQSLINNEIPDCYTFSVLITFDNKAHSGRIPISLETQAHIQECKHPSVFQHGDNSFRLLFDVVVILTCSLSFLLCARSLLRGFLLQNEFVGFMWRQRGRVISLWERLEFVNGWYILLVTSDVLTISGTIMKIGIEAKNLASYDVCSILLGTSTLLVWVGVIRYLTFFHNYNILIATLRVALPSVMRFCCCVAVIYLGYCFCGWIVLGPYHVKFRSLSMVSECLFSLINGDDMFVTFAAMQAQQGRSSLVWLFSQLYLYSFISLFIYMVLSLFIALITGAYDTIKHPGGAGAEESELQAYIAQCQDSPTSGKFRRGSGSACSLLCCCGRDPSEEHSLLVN
#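 Tet-induced TRPML1-DL cells loaded with Ca8 no-wash calcium dye were read kinetically on FDSS. Compound addition was followed by EC80 agonist 54-4 (4 uM final); inhibition was read over 110 s.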
# PINK1 modulator: PINK1 expression modulation; PINK1 immunofluorescence, high-content cytometry, 24 h; Potency, µM (top dose mostly 76.6 µM), inactives show top-dose activation (PINK1 increase), most hits filed as activators; hit rate 0.2% among 410,000; active = well fitted activation curve with a large enough effect; inconclusive = small, poorly fitted or top-dose-only effect; inactive = flat fitted curve, though single readings scatter; cell line not stated here;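 also: potency is read from the fitted curve at half-maximal effect; % of control where 0% means no effect; nearly all actives have a fitted effect of over 65% in size; a mitochondrial uncoupler was the plate control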
#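 Decision-based qHTS: stable cells, 24 h exposure to five compound concentrations, CCCP as control. Fixed cells stained for PINK1 plus nuclear, mitochondrial and cell markers, cytometer read.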
# TRPML1 ag: human mucolipin-1 channel agonism; AID 624414; hit rate 0.12% among 410,000; TRPML1-expressing cells, Ca2+ dye fluorescence, FDSS; host cell line not named in the record; reference of the full effect not given here; activation, % (test concentration not listed); in the data active = activation above about 50%; inconclusive = about 30% to 50%; inactive = below about 30%; also: 0% is about no effect; the text of the record puts the active cut at 80%
#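 Agonist activity was taken from a 110 s kinetic Ca2+ dye read on the FDSS after pinning compounds onto TRPML1-DL cells. The cells were seeded at 1,500/well with Tet inducer, incubated about 16 h, then dye-loaded at room temperature.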
# D2 agonist: agonists of human D2 dopamine receptor (beta-arrestin). DiscoveRx PathHunter D2 beta-arrestin, luminescence, 90 min; 100% = 57 uM dopamine signal. activation, % (test concentration not listed). hit rate 0.084% among 360,000; in the data active = activation above about 40%; inconclusive = about 15% to 40%; inactive = below about 15%; also: compound concentration not given in the record; the text of the record calls up to 30% inactive
#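 DiscoveRx PathHunter D2 beta-arrestin cells (2,100/well) attached overnight, then compound-stimulated 90 min at 37 C in HBSS/10 mM HEPES/0.1% Tween-20 buffer; beta-galactosidase complementation read by luminescence after 1 h at ambient temperature. Dopamine 57 uM final (EC100) as control.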
# * = called active by the depositor; ? = inconclusive; · = no result given; [ ] = remark or other dose.
SMILES,D2 potentiator,Six1-Eya2 inh,TRPML1 blocker,PINK1 modulator,TRPML1 ag,D2 agonist
Cc1csc(=Nc2cccnc2)n1CC1CCCCC1,-5,-4,-10,-0.3%,-0.6,-4.2
Cc1ccc(C(=O)COc2cc(O)c3c(=O)cc(-c4ccccc4)oc3c2)cc1,-13,-8,·,9.1%,·,-1.3
CCn1cc(C(=O)NCCOC)c(=O)c2ccc(C)nc21,-14,5,20,0.1%,-0.1,3.4
CCOC(=O)/C(C#N)=C1/C=Cc2ccccc2N1CC,-2,-10,-6,4.1%,-0.2,-2.0
Nc1nc2n(c1C(=O)c1ccccc1)CCC2,4,1,-4,27%[38.3 µM],0.5,-2.7
Cc1ccc(C2Nc3ccc4ccccc4c3C3=C2C(=O)CC(C)(C)C3)o1 (stereo unspecified),-11,-2,11,-3.2%[38.3 µM],0.3,-1.8
COc1ccccc1NC(=S)NC(=O)c1c(-c2ccccc2Cl)noc1C,-7,-5,-3,3.6%,0.9,-3.3
COc1ccc(C(=O)NCCn2nc(C)cc2C)cc1OC1CCN(C(C)=O)CC1,3,5,0,4.3%,0.3,-0.6
COc1ccc(C)cc1S(=O)(=O)N1CCN(c2cccc(Cl)c2)CC1,·,·,-2,1.4%,-0.6,·
Cc1ccccc1OCC(=O)Nc1nnc(S(=O)(=O)N(C)c2ccccc2)s1,·,·,8,-0.1%,1.0,·
N#CC1=C(N)Oc2cc(O)ccc2C1c1cccs1 (stereo unspecified),-6,-16,68,8.0%,1.0,-0.8
CC1CCN(S(=O)(=O)c2ccc(NC(=O)CCN3C(=O)c4ccccc4C3=O)cc2)CC1,-5,-1,-2,6.4%[38.3 µM],0.9,0.3
Cc1c(Cl)ccc2sc(N3CCN(C(=O)C4=COCCO4)CC3)nc12,-18,0,-17,-3.9%,0.6,6.9
CC1(C(=O)Nc2ccc(F)c(Cl)c2)Cc2c(-c3ccc(C(N)=O)cc3)ccnc2O1 (stereo unspecified),5,?,·,-0.5%,-0.6,12
CCCCNC(=O)C1CCC(Cn2c(=O)c3sccc3n(CC(=O)N3CCCC3)c2=O)CC1 (stereo unspecified),·,·,-10,0.3%,0.5,·
O=C(Cn1cc(SCc2ccccc2F)c2ccccc21)N1CCCCC1,·,·,-11,0.5%,-0.1,·
Cc1cc(C)c(NC(=O)c2cc3c(=O)n4ccccc4nc3n2C)c(C)c1,·,·,1,8.1%,-1.0,·
O=C(CSc1nc2c(c(=O)[nH]1)CN(Cc1ccc(F)cc1)CC2)Nc1ccccc1Cl,·,·,5,-1.8%,-1.0,·
N#Cc1ccc(NC(=O)Cn2cnc(S(=O)(=O)N3CCCC3)c2)cc1,-8,6,-10,-1.0%,0.6,-2.2
CN(Cc1ccccc1)C(=O)CC(=O)N(C)Cc1ccccc1,0,12,4,-0.7%,0.0,1.5
O=C(Cn1c(=O)sc2ccccc21)Nc1ccc2c(c1)OCCO2,-13,-2,-5,-0.3%,1.2,-0.4
c1ccc(CCCCN2C(Nc3ccccc3)=NC[C@@H]2Cc2ccccc2)cc1,-20,-5,1,2.8%,0.7,-7.9
CCOc1cc(OCC)cc(C(=O)Nc2cccc(-c3nc4ccccc4[nH]3)c2)c1,·,·,1,-2.2%,2.8,·
CC1=C(C(=O)Nc2cc(Cl)ccc2C)C(c2cccs2)n2ncnc2N1 (stereo unspecified),·,·,5,-4.8%,0.6,·
c1ccc(Nc2c(-c3c[nH]c4ccccc34)nc3ccccn23)cc1,·,·,1,2.6%,2.5,·
Cc1ccc(Nc2nc(CSc3nnc(-c4cccnc4)n3-c3ccccc3F)cs2)cc1,-3,-3,0,-0.2%,-0.5,-6.3
Cc1nn(-c2ccccc2)c(N)c1C1(O)C(=O)Nc2ccc([N+](=O)[O-])cc21 (stereo unspecified),-8,4,17,0.1%,-0.4,-4.0
Cc1cc(NC(=O)c2c([N+](=O)[O-])cnn2C)no1,6,-4,12,9.1%[38.3 µM],0.3,-1.4
COc1ccc(C(=O)NCCn2cc(SCC(=O)Nc3ccc4c(c3)OCCO4)c3ccccc32)cc1,·,·,31,1.3%,3.8,·
CCN(CC)S(=O)(=O)c1ccc(NC(=O)C(C)N(c2ccccc2)S(C)(=O)=O)cc1 (stereo unspecified),16,-4,-10,0.4%,0.8,2.0
O=S(=O)(c1cccc(-c2n[nH]c(=S)o2)c1)N1CCOCC1,-4,11,1,0.8%,-0.3,-2.0
O=Cc1c(NCCCN2CCCC2=O)c2ccccc2[nH]c1=O,-16,-9,-4,0.7%,0.1,-4.5
CC(C)N(C)C1CCN(S(=O)(=O)c2ccc(-c3ccc(=O)[nH]n3)s2)CC1,-11,3,41,-0.9%,-0.9,-7.6
O=C1CCN(Cl)C(=O)N1Cl,·,21,·,0.3%,0.0,·
COc1ccccc1C(=O)Nc1nnc(SCC(=O)NCc2ccco2)s1,-7,1,9,3.6%,0.5,-0.5
O=C1CN(C(=O)CSc2nc3ccccc3c(=O)n2CC2CCCO2)c2ccccc2N1 (stereo unspecified),-1,2,-25,-0.7%,-0.3,-2.8
COc1ccccc1C(=O)C1CCCN(C(=O)c2ccccc2Cl)C1 (stereo unspecified),-1,10,0,-1.3%,-0.9,-2.2
CCOc1ccc(OCC)c(NC(=O)C(NS(=O)(=O)c2ccc3c(c2)oc(=O)n3C)C(C)C)c1 (stereo unspecified),-4,2,-1,6.9%[38.3 µM],-0.1,-3.7
Cc1ccc(-c2nc3ccccc3nc2NN)cc1,-8,7,-20,-2.1%,0.0,-2.0
Cc1ccc(C2/C(=C(/O)c3ccccc3)C(=O)C(=O)N2CCN2CCOCC2)o1 (stereo unspecified),12,5,-5,-2.3%,-1.0,-1.0

# Reformatted tab-delimited: part of the list above.
SMILES	D2 potentiator	Six1-Eya2 inh	TRPML1 blocker	PINK1 modulator	TRPML1 ag	D2 agonist
O=S(=O)(c1cccc(-c2n[nH]c(=S)o2)c1)N1CCOCC1	-4	11	1	0.8%	-0.3	-2.0
Cc1ccc(C2/C(=C(/O)c3ccccc3)C(=O)C(=O)N2CCN2CCOCC2)o1 (stereo unspecified)	12	5	-5	-2.3%	-1.0	-1.0
O=C1CCN(Cl)C(=O)N1Cl	·	21	·	0.3%	0.0	·

# More entries follow:
SMILES,D2 potentiator,Six1-Eya2 inh,TRPML1 blocker,PINK1 modulator,TRPML1 ag,D2 agonist
CCCn1c(=O)c(-c2ccccc2)c(O)c2ccccc21,5,-1,-1,-1.2%,0.8,-2.8
COc1cc(C(=O)OCC(=O)NC2CCCC2)cc(NC(=O)c2ccco2)c1OC,10,-4,-3,3.3%,-1.5,0.2
Cc1c(C(=O)N(C)C)sc2c1c(=O)n(-c1ccccc1C(F)(F)F)c(=O)n2Cc1ccccc1C#N,·,·,19,3.1%,1.0,·
COCCN(C(=S)Nc1ccc(C)cc1C)C(C)c1ccco1 (stereo unspecified),-4,-10,12,0.9%,-0.2,-1.6
O=C(N/N=C/c1ccccc1C(F)(F)F)c1ccc2nc[nH]c2c1,-26,1,-6,-1.2%,0.8,-2.7
CCOc1ccccc1OCC(=O)OCc1csc(CC(=O)Nc2ccccc2C)n1,-4,-9,-11,1.2%,0.8,-5.2
c1ccc(CCC2Cc3ccccc3N2)cc1 (stereo unspecified),-3,-12,12,1.0%,-1.3,-1.8
CC1(C(=O)NS(=O)(=O)c2ccc(C#N)cc2)CCN1C(=O)c1cccc2ccccc12 (stereo unspecified),-2,-2,·,2.2%,-0.4,1.7
CCc1nc2ccccc2n1CCc1ccccc1,13,7,-5,2.2%,1.4,-2.2
Cc1cc(C)c(N2C(=NC(=O)CCCC(=O)O)SC3CS(=O)(=O)CC32)c(C)c1 (stereo unspecified),-8,-1,17,-5.6%,-0.4,-0.9
Cc1ccc2c(Cl)cc(Cl)c(OCC(=O)Nc3cccc(S(N)(=O)=O)c3)c2n1,-5,1,7,1.3%,0.8,3.1
CCC(=O)C1=C(c2cccc([N+](=O)[O-])c2)N(C(=O)CC)n2c(nnc2C2CCCCC2)S1,·,·,-3,-0.6%,1.7,·
CCOC(=O)c1sc2ccccc2c1S(=O)(=O)N1CCN(c2cccc(OC)c2)CC1,·,·,-2,4.7%,1.1,·
COC(=O)Cn1c(C)c(C(C)=O)c(C(C)=O)c1C,-15,2,-7,0.2%,0.0,1.7
CS(=O)(=O)N(CC(=O)N1CCCC1)c1ccc(Cl)cc1Cl,-4,2,-10,3.7%,-0.3,-1.5
CC(Sc1ccc2ccccc2n1)C(=O)O (stereo unspecified),-6,-5,10,-1.3%,0.6,-1.5
Cc1ccc(C(=O)/C=C/c2cn(CN3CCN(C)CC3)c3ccccc23)cc1,-2,0,2,-1.1%[38.3 µM],1.7,-0.3
COc1cccc(C(=O)N2CCC(n3nccc3NC(=O)C(OC)c3ccccc3)CC2)c1 (stereo unspecified),-13,1,-7,1.8%,0.2,-6.6
CCOc1cc(N2CCOCC2)c(OCC)cc1NC(C)C(=O)N1CCN(CC)CC1 (stereo unspecified),23,-25,5,-1.0%,0.3,4.6
OC1(c2cccc(C(F)(F)F)c2)CCN(Cc2nnnn2CCc2ccccc2)CC1,-33,-4,-12,2.1%,0.7,-1.8

# An excerpt from above in order of heavy-atom count, rising.
SMILES,D2 potentiator,Six1-Eya2 inh,TRPML1 blocker,PINK1 modulator,TRPML1 ag,D2 agonist
CC(Sc1ccc2ccccc2n1)C(=O)O (stereo unspecified),-6,-5,10,-1.3%,0.6,-1.5
COC(=O)Cn1c(C)c(C(C)=O)c(C(C)=O)c1C,-15,2,-7,0.2%,0.0,1.7
CS(=O)(=O)N(CC(=O)N1CCCC1)c1ccc(Cl)cc1Cl,-4,2,-10,3.7%,-0.3,-1.5
Cc1ccc(C(=O)/C=C/c2cn(CN3CCN(C)CC3)c3ccccc23)cc1,-2,0,2,-1.1%[38.3 µM],1.7,-0.3

# More structures:
SMILES,D2 potentiator,Six1-Eya2 inh,TRPML1 blocker,PINK1 modulator,TRPML1 ag,D2 agonist
c1ccc(CN2CCC(Nc3nc(-c4cccnc4)nc4ccccc34)CC2)cc1,-47,-19,5,4.7%,0.1,-4.8
CCCCCCCN(C(=O)CCl)c1cccc(C)c1,-14,1,-10,?,0.6,-2.2
CCOc1cc(N2CCOCC2)c(OCC)cc1NC(=O)Cc1cccc2ccccc12,4,?,12,-1.2%,1.3,1.4
CC(=O)NC(=O)NC1OC(=O)C(Cl)=C1Cl (stereo unspecified),-5,-3,15,-1.7%,0.5,-1.4
OC(c1ccccc1)c1ncc(-c2ccccc2F)[nH]1 (stereo unspecified),-17,1,3,2.1%,-0.3,-3.0
Cc1ccc(C(=O)Nc2ccccc2C(=O)N2CCCCCC2)cc1,-8,2,12,2.8%,0.0,1.9
COC(=O)c1ccccc1NC(=O)Cn1c(=O)cc(-c2ccccc2)c2c(C)nn(C)c21,·,·,-10,-0.3%,-0.1,·
COc1ccc(NC(=O)c2ccc3oc(=O)c(S(=O)(=O)c4ccc(F)cc4)cc3c2)c(OC)c1,·,·,-10,1.8%,-0.2,·
